# Mtb growth – M. tuberculosis H37Rv growth inhibitors, H37Rv strain (AID 1626); 220,000 tested, 0.95% active; M. tuberculosis H37Rv growth inhibition; higher % means a stronger effect; one-dose inhibition, % at 10 µM; IC50 in µM for titrated hits;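 active = confirmed in a dose series; inconclusive = inhibition above 80% but not taken into the dose series; inactive = below 80% or under 30% at every dose of the series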;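 note: bacteria incubated seven days before Alamar blue readout; 0% = bacteria only wells and 100% = bacteria with antibiotic wells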
# Mtb bLac sens – beta-lactam sensitization of Mtb H37Rv; inhibition, % at 25 µM; 330,000 tested, 0.27% active; M. tuberculosis H37Rv growth with meropenem, percent inhibition; hits of this screen are not shown here;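 active = about 74% or more and at least 40 points above the plate without the antibiotic, then above 30% in a dose series; inconclusive = first-round hits that could not be retested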;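 note: growth measured after seven days incubation then overnight dye step; 0% = bacteria only wells and 100% = bacteria with antibiotic; twin plates without the antibiotic show which effects depend on it; some results filed as inactive read as strong as hits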
# YopH inh – blocks Yersinia enterocolitica YopH tyrosine phosphatase. fluorescence Ex485/Em525. AID 898. 140,000 tested, 0.16% active. inhibition, %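 (about 10 µM by stock and volumes)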;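 active = inhibition of 50% or more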;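 note: controls were vehicle for no effect and minimum signal wells for full effect; inactives centre near -20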
# RecA intein inh – blocks M. tuberculosis RecA intein splicing; cell-free RecA intein splicing, fluorescence; inhibition, %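 (about 9 µM by stock and volumes)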; 290,000 tested, 0.75% active; in the data active = inhibition above about 30%; inconclusive = no clear call, values can overlap the other calls;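 note: 0% = vehicle wells and 100% = reference inhibitor control wells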
# Target sequence (P9WHJ3 whole entry, looked up): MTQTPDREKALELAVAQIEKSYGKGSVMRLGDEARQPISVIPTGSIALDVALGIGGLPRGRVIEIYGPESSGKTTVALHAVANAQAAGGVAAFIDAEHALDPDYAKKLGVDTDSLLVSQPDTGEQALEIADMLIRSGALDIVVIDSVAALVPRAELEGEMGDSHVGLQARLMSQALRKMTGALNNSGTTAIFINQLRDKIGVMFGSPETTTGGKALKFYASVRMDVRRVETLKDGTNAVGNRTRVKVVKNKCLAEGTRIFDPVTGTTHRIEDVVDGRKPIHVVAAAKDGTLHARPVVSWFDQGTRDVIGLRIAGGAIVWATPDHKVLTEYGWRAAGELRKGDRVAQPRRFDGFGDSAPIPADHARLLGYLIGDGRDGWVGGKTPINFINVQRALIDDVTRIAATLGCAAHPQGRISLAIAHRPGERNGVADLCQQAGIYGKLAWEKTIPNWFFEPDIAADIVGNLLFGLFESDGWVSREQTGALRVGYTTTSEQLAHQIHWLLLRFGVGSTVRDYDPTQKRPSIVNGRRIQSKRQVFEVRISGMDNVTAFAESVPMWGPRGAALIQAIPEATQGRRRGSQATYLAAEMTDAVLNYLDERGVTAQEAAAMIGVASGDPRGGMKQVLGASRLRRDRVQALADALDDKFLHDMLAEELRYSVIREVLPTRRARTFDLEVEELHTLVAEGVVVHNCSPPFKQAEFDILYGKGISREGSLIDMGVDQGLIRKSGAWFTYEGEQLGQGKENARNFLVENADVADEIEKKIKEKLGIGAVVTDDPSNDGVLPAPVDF
# Arbovirus anti – arbovirus infection inhibition. arbovirus infection cell-based antiviral screen. inhibition, % at 10 µM. 200,000 tested, 0.37% active. AID 1251;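 active = inhibition from about 30%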;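 note: bluetongue infection of BSR cells; cell survival read as ATP light after 72 h; 0% = infected wells without compound and 100% = uninfected wells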
# Arbovirus anti repeat – also measured in Arbovirus anti; calls as there; inhibition, %; measured here: 10K subset replicate screen; many hits read low in the repeat;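 first of two repeat runs on a subset; 0% = infected and 100% = uninfected wells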
# An asterisk follows results filed as active; u = inconclusive; x = no result given.
SMILES,Mtb growth,Mtb bLac sens,YopH inh,RecA intein inh,Arbovirus anti,others
Cc1ccccc1OCC(O)Cn1c(NCCN(C)C)nc2c1c(=O)n(C)c(=O)n2C (stereo unspecified),x,-3,-28,0.5,-6,Arbovirus anti repeat=-2
COC(=O)C1=C(c2cc3ccccc3o2)C[C@@H]2CC[C@H]1N2C(=O)N1CCC(O)CC1,-4%,13,x,-5.8,x,
COc1ccc(-n2c(-c3ccc(Cl)cc3)c[n+]3c2CCCCC3)cc1,-12%,-6,x,-1.1,x,
CCOC(=O)C1CCCN(C(=O)c2cccc([N+](=O)[O-])c2C)C1 (stereo unspecified),5%,2,x,-1.0,0,
CS(=O)(=O)N(CCCC(=O)N1CCCCCC1)c1cccc(Cl)c1,x,-5,x,2.5,x,
O=C(NCCCn1ccnc1)/C(=C/c1ccco1)NC(=O)c1ccccc1,-5%,-10,-4,x,x,
O=C(N/N=C/c1ccc(F)cc1)c1sccc1OCc1ccc(F)cc1,1%,35,-43,-0.1,-28,
C#CCOCCOCCOCCNc1nc(N2CCN(C(=O)CCCCCCCCCCNC(=O)[C@H](CO)n3cc(CCCSC)nn3)CC2)nc(N2CCN(C(=O)CCCCCCCCCCNC(=O)[C@H](CO)n3cc(CCCSC)nn3)CC2)n1,x,-1,x,-0.8,x,
CC(C)c1cccc(C(C)C)c1OCCn1ccnc1,2%,52,-32,-0.8,5,
CCCC12CN(C(=O)c3ccco3)CC(CCC)(CN(C(=O)c3ccco3)C1)C2=O,x,-1,x,-0.9,x,
O=C(CN1C(=O)C2C3C=CC(C3)C2C1=O)NCC1COc2ccccc2O1 (stereo unspecified),1%,-1,-28,0.9,3,
CCN(CC)C(=O)c1sc2nc(-c3cccs3)cc(-c3ccc(Cl)cc3)c2c1N,6%,2,-14,4.6,-8,
S=C(c1ccc(-c2cc(Cl)ccc2Cl)o1)N1CCCCC1,11%,6,-23,4.5,-4,
COc1ccc(C(=O)NCc2cc3ccccc3n2C)cc1,x,0,x,-5.2,x,
CC1CCCCN1C(=O)Cn1cc(C(=O)c2ccco2)c2ccccc21 (stereo unspecified),5%,-3,9,1.9,-1,
COCC(=O)OCc1cc2cccc(C)c2[nH]c1=O,-5%,-9,x,-0.2,x,
COc1ccc(CN(C(=O)c2snc(C(N)=O)c2N)C(C(=O)NC2CCCC2)c2ccco2)cc1 (stereo unspecified),x,5,x,1.4,x,
COc1cc(OC)cc(C(=O)N=c2sc3ccccc3n2C)c1,-6%,-7,x,0.4,1,
CCN(CC)S(=O)(=O)c1ccc(Cl)c(NC(=O)CCCCl)c1,-4%,14,x,0.7,x,
CN1C(=O)NC(=O)/C(=C/c2ccc([N+](=O)[O-])s2)C1=O,10%,88,x,-0.7,x,
CC(=O)O[C@H]1CC(C)(C)C(=C=C/C(C)=C/C=C/C(C)=C/C=C/C=C(C)/C=C/C=C(\C)C(=O)C[C@@]23O[C@]2(C)C[C@@H](O)CC3(C)C)[C@](C)(O)C1,-6%,-8,x,4.3,x,
CCOC(=O)C1=C(N)OC2=C(C(=O)CC(C)(C)C2)C1c1ccc(CC)s1 (stereo unspecified),x,2,x,9.5,-4,
CCCNC(=O)C1(CC2CC(c3ccccc3)=NO2)CCN(C(=O)OC(C)(C)C)CC1 (stereo unspecified),5%,-14,x,-2.1,x,
CCOc1ccccc1C(=O)Nc1cccc2cccnc12,x,68,x,12,x,
CCCOc1cccc(C(=O)NC(=S)Nc2ccccc2)c1,11%,-3,-24,2.0,-8,
CN(CC(=O)Nc1ccccc1Cl)C(=O)c1cccc(S(=O)(=O)N2CCN(Cc3ccccc3)CC2)c1,x,-15,x,-0.7,x,
COc1ccccc1C(=O)N1CCN=C1SC,-1%,3,-14,-0.6,0,
CCCCN(C(=O)COC(=O)COc1c(C)cc(C)cc1C)c1c(N)n(CCC)c(=O)[nH]c1=O,x,-6,x,-1.0,x,
O=C(N/N=C/c1c(O)n(CCc2ccc(F)cc2)c(=O)[nH]c1=O)c1ccccc1,-1%,13,x,0.7,x,
CCOC(=O)c1c(-c2ccc(C)o2)csc1NC(=O)CN1CCN(CC)CC1,5%,3,-22,4.0,-13,
CC(C)c1ccc(CNC(=O)CCc2ccccc2)cc1,6%,2,x,x,-1,
CCN1CCN(S(=O)(=O)c2ccc(C)c([N+](=O)[O-])c2)CC1,2%,-4,-21,-1.4,-3,
COC(=O)c1c(C)noc1-c1cc(C)on1,-2%,1,-10,-1.0,-1,
COc1cc(S(=O)(=O)N2CCN=C2c2ccccc2)ccc1Cl,x,1,x,-0.3,x,
CC1Cn2c(nnc2-c2cccc(Cl)c2)S1 (stereo unspecified),-1%,u,-24,-2.0,0,
CSc1nsc(SCC(=O)N2CCCc3ccccc32)n1,53%,95,-15,2.8,0,
Cc1cccc(NC(=O)CCC2CCN(C(=O)C3CC=CCC3)CC2)c1 (stereo unspecified),x,-6,x,-4.5,x,
Cc1nc(SCC(=O)N2CCOCC2)c2c(=O)n(C)c(=O)n(C)c2n1,-4%,0,x,-5.1,x,
Cc1ccccc1NP(=O)(c1ccccc1)c1nc2ccccc2s1 (stereo unspecified),2%,-2,x,-0.9,-3,
COc1cc(-n2c(C)nc3cc(C(=O)NCc4ccco4)ccc32)cc(OC)c1OC,-1%,18,11,0.4,-7,
CCCCCCC1CC(CSc2ncn[nH]2)OC1=O (stereo unspecified),7%,14,8,-5.5,5,
Cc1ccc(C(=O)CN2C(=O)C(=O)N(Cc3ccccc3)C2=O)cc1,5%,5,x,x,6,
COc1ccc(-c2ccc([C@H]3[C@@H]4C=CCC[C@@]4(C)C(=O)N3Cc3ccccc3)c(F)c2)cc1OC,13µM*,98,x,8.7,x,
C=CCNC(=O)c1onc(CSc2nc3ccccc3[nH]2)c1C(=O)NCC=C,x,-1,x,0.1,x,
Cc1cccc(N2C(=O)CC(Sc3ncn[nH]3)C2=O)c1 (stereo unspecified),-5%,0,x,4.3,11,
CCOc1ccc(CN2C(=O)CCC2(C)C(=O)NCc2cccnc2)cc1 (stereo unspecified),-9%,-2,-37,2.0,7,
c1n[nH]c(NCc2ccc3c(c2)OCO3)n1,-3%,-9,-41,-3.8,-1,
C=CCNc1nc(N2CCCC2)nc2ccccc12,x,-4,-19,2.3,-9,
COc1ccc(S(=O)(=O)N(C)c2ccc(C(=O)N3CCOCC3)cc2)cc1OC,-1%,5,-8,-1.4,12,
NNC(=O)Cn1c(-c2nonc2N)nc2ccccc21,3%,8,x,-1.0,-2,
Nc1ccc(C(=O)OCCCc2nc3cc4ccccc4cc3[nH]2)cc1,10%,87,x,3.2,x,
COc1ccc(NS(=O)(=O)c2ccc3c(c2)CCC(=O)N3)c(OC)c1,-5%,-1,-42,-0.7,2,
COc1cc(-c2nc(S(=O)(=O)c3ccc(C)cc3)c(N(C)C)o2)cc(OC)c1OC,-2%,-1,-38,-1.2,7,
COc1ccccc1CNC(=O)CCC(=O)n1ncc2cc(C)ccc21,x,1,x,-6.7,x,
C/C=C/C(=O)N1c2ccccc2C(C)=CC1(C)C,6%,-4,x,0.8,-3,
CCn1c(=O)c(C(=O)NCc2ccccc2OC)c(O)c2ccccc21,x,0,x,3.4,x,
O=c1[nH]c(CN2CCOCC2)nc2cc(Cl)ccc12,5%,-1,x,6.7,-2,
COc1ccc(NC(=O)C(=O)NNC(=O)c2ccc(Cl)cc2Cl)cc1,x,83,x,-1.1,x,
CC(C)=C1C(=O)NN(c2ccc(F)c(Cl)c2)C1=O,52%,77,-29,-1.9,-37,
CC(=O)NC(CC(=O)NCCCn1ccc2ccccc21)c1ccccc1 (stereo unspecified),x,-4,x,2.7,x,
# Additional structures:
SMILES,Mtb growth,Mtb bLac sens,YopH inh,RecA intein inh,Arbovirus anti,others
Cc1nc2nc(Cc3ccccc3)[nH]n2c(=O)c1Cc1ccccc1,5%,32,1,x,2,
CCC1=NN(C(=O)C(=O)NCCc2ccccc2)C(O)(C(F)(F)F)C1 (stereo unspecified),8%,-1,-3,1.5,3,
C=CCN1C2CCCC1CC(NC(=O)Nc1cc(C)cc(C)c1)C2 (stereo unspecified),-4%,-6,x,-0.1,0,
CS(=O)(=O)Oc1ccc2c(c1)O/C(=C\C=C\c1ccccc1)C2=O,0%,-1,x,1.8,x,
Cn1c(CCC(=O)OCC(=O)NCc2ccccc2Cl)nc(=O)c2ccccc21,6%,3,x,-2.0,15,
CN(C)S(=O)(=O)c1ccc(S(=O)(=O)N(CC(=O)Nc2ccccc2)Cc2ccco2)cc1,-5%,7,-21,0.2,-3,
COC(=O)c1cn(C(=O)/C=C/c2ccc(OC)c(OC)c2)c2ccccc12,5%,-4,x,-8.4,-1,
CCOc1ccccc1OCCCOc1ccc(C)cc1Cl,-3%,2,7,7.9,5,
COc1ccc(-c2noc(C3CCCN(C(=O)CCc4ccccc4)C3)n2)cc1 (stereo unspecified),2%,15,-26,4.2,-8,
COc1ccccc1NS(=O)(=O)c1cc(NC(=O)c2sccc2C)ccc1N1CCOCC1,-2%,-9,x,-3.9,x,
COc1ccc(N(CC(=O)O)S(=O)(=O)c2cccnc2)cc1,-6%,7,-45,-7.8,13,
CCOC(=O)C1=C(C)N=c2s/c(=C3/C(=O)Nc4ccccc43)c(=O)n2C1c1ccc(C)cc1 (stereo unspecified),-8%,1,4,-6.7,4,
CC1CCN(C(=O)c2cc(S(=O)(=O)N3CCCCC3)c[nH]2)CC1,x,-14,x,-1.1,x,
Cc1nnc(SCC(=O)Nc2ccc(F)cc2F)n(N)c1=O,x,-12,x,-1.7,x,
COc1ccccc1N1CCN(C(c2cccs2)C(C)NS(=O)(=O)c2ccccc2)CC1 (stereo unspecified),7%,7,-15,5.3,-6,

# Retrieved by compound from the entries so far:
SMILES,Mtb growth,Mtb bLac sens,YopH inh,RecA intein inh,Arbovirus anti,others
CC(=O)NC(CC(=O)NCCCn1ccc2ccccc21)c1ccccc1 (stereo unspecified),x,-4,x,2.7,x,
COc1ccc(-c2ccc([C@H]3[C@@H]4C=CCC[C@@]4(C)C(=O)N3Cc3ccccc3)c(F)c2)cc1OC,13µM*,98,x,8.7,x,
CCOC(=O)C1=C(N)OC2=C(C(=O)CC(C)(C)C2)C1c1ccc(CC)s1 (stereo unspecified),x,2,x,9.5,-4,
O=C(N/N=C/c1ccc(F)cc1)c1sccc1OCc1ccc(F)cc1,1%,35,-43,-0.1,-28,
COc1ccc(NS(=O)(=O)c2ccc3c(c2)CCC(=O)N3)c(OC)c1,-5%,-1,-42,-0.7,2,
COc1ccc(-n2c(-c3ccc(Cl)cc3)c[n+]3c2CCCCC3)cc1,-12%,-6,x,-1.1,x,

# Next structures.
SMILES,Mtb growth,Mtb bLac sens,YopH inh,RecA intein inh,Arbovirus anti,others
COc1cc(NC(=O)C2CCN(c3cnccn3)CC2)cc(OC)c1OC,x,-10,x,-0.1,x,
Cc1cc(C)n2c(SCc3ccc(Br)cc3)nnc2n1,87%,-7,x,-0.8,x,
CC(=O)N1c2c(cc(Br)cc2S(=O)(=O)N2CCN(c3ccccc3F)CC2)CC1C (stereo unspecified),x,-3,x,4.6,x,
COCCC(=O)NC12CC3CC(CC(C3)C1)C2,-7%,-11,-74,-1.8,1,
CCn1c(=N)n(CC(=O)c2ccc(OC)c(OC)c2)c2ccccc21,-10%,-9,-7,-8.1,11,
O=S(=O)(NCC1CCN(c2ccc(S(=O)(=O)N3CCOCC3)cc2)CC1)c1ccc(F)cc1,x,3,x,7.9,x,
CC1=NOC(=O)/C1=C/c1ccc(O)c(Br)c1,x,-7,x,1.1,x,
Cn1c(=O)c2c(nc(SCC(=O)c3cccs3)n2Cc2ccc(F)cc2)n(C)c1=O,1%,8,-44,0.5,0,
CCOc1ccc(NC(=O)CN(C)C(=O)c2ccc(=O)[nH]c2)cc1OCC,x,-1,x,3.2,x,
COc1cc(-c2nnc(NC(=O)CCS(=O)(=O)c3ccc(F)cc3)o2)cc(OC)c1OC,x,40,x,-1.6,x,
O=C(Cc1ccc([N+](=O)[O-])cc1)N1N=C2CCCCC2C1(O)C(F)(F)F (stereo unspecified),19%,-10,x,4.8,x,
Cc1ccc(NC(=S)NCC(C)CSc2ccc(Cl)cc2)cc1 (stereo unspecified),3%,5,x,17,-27,
O=c1[nH]c(=O)n(-c2ccccc2)c(O)c1N=Nc1ccc(Br)cc1,11%,-8,x,1.2,3,
O=C(COc1ccc2c3c(c(=O)oc2c1)CCCC3)NCc1cccnc1,x,9,x,-1.2,x,
Cc1ccc(Nc2ncnc(N)n2)cc1,-6%,1,x,0.9,-6,
CC12CCC(C(=O)Nc3ccccc3Br)(C/C1=N\O)C2(C)C (stereo unspecified),-11%,4,-59,1.0,5,
COc1ccc(C(=O)N2CCN(Cc3ccccc3[N+](=O)[O-])CC2)cc1,x,-7,x,2.5,x,
CNC(=O)CSc1nnc(-c2ccco2)n1-c1cccc(C)c1,x,-4,x,0.0,x,

# Screening results from PubChem BioAssay.

# Not all compounds are listed. The share of hits here may be higher or lower than overall.
